CHRM5 antagonist: CHRM5 antagonism in calcium assay. CHO-hM5 cells, Fluo-8 calcium fluorescence, ACh EC80. 360,000 tested, 0.59% active. inhibition, % at 3 µM. P08912. AID 624040;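 active = inhibition above a per-plate cutoff, the mean of that plate's test compounds plus 3 SD, cut at about 27% in these data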;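 note: 0% = acetylcholine EC80 with DMSO and 100% = DMSO without agonist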
Target sequence (P08912 whole entry, looked up): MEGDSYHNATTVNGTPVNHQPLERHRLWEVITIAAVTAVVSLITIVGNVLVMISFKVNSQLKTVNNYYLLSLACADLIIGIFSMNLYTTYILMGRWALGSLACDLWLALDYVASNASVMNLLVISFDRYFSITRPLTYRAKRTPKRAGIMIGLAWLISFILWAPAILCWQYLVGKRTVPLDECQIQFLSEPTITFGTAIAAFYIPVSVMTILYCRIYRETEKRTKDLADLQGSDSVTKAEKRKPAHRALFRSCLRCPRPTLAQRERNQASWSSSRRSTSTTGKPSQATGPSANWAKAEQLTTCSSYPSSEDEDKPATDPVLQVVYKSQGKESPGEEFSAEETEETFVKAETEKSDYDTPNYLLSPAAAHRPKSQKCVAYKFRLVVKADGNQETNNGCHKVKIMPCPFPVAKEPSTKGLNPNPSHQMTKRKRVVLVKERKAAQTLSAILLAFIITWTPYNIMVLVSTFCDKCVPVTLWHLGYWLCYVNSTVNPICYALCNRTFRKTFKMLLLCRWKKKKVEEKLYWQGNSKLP
CHRM5 agonist: agonists of human muscarinic M5 receptor (CHRM5); P08912; activation, % at 3 µM; CHO-K1 hM5 cells, Fluo-8 calcium fluorescence; 0% DMSO wells, 100% maximal acetylcholine response; 360,000 tested, 0.19% active;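 active = activation above the run's mean over test compounds plus 3 SD, cut at about 23% in these data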;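 note: signal is peak over basal fluorescence ratio across the kinetic read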
CRFBP-R2 block: CRF-BP/CRF-R2 complex antagonism; HEK293 CRF-R2/CRF-BP, CRF-induced calcium fluorescence; 350,000 tested, 0.59% active; inhibition, % at 11.8 µM;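 active = inhibition of the ligand-induced calcium signal above about 50% at the single tested concentration, limit read from the data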
M5 PAM: CHRM5 positive allosteric modulation. P08912. CHO-K1 hM5, Fluo-8 calcium, ACh EC20 PAM; 0% = ACh EC20, 100% = ACh EC100. activation, % at 3 µM. 360,000 tested, 0.3% active. AID 624038;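 active = activation above the run cutoff, the mean activation of all test compounds plus 3 SD, cut at about 18% in these data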
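System: CHO-K1 cell line with stable human muscarinic M5 receptor expression | Also added: EC20 acetylcholine as agonist stimulus | Compound: One concentration, 3 µM final (nominal) | Timing: Fluo-8 loading 80 min at 37 °C plus 30 min room temperature | Measured by: Fluo-8 calcium dye fluorescence, kinetic read | Read-out basis: % activation, ACh-normalized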
Starred values were filed as active, the others as inactive.

C[C@H](C(=O)O)c1cccc(C(=O)c2ccccc2)c1 was read as CHRM5 antagonist 2.8, CHRM5 agonist -0.2, CRFBP-R2 block -5.9 and M5 PAM -6.9.
CCN(CC)C(=O)N1CCN(C)CC1 was read as CHRM5 antagonist 1.8, CHRM5 agonist -1.1, CRFBP-R2 block 2.9 and M5 PAM -2.3.
For NC(=O)c1cccnc1 the results were CHRM5 antagonist -4.2, CHRM5 agonist -0.1, CRFBP-R2 block -19.8 and M5 PAM -0.6.
Screening COC(=O)C1=C(C)NC(C)=C(C(=O)OCCN(C)Cc2ccccc2)C1c1cccc([N+](=O)[O-])c1 (configuration not stated) returned CHRM5 antagonist 17.4, CHRM5 agonist 3.1, CRFBP-R2 block 31.0 and M5 PAM -19.2.
`NCCS(=O)(=O)O` gave CHRM5 antagonist -0.5, CHRM5 agonist -0.2, CRFBP-R2 block -2.0 and M5 PAM 0.4.
`CC1(C)S[C@@H]2[C@H](NC(=O)[C@H](N)c3ccccc3)C(=O)N2[C@H]1C(=O)OC1OC(=O)c2ccccc21` (some centres not stated) gave CHRM5 antagonist -5.4, CHRM5 agonist 0.1, CRFBP-R2 block -32.6 and M5 PAM -5.0.
Cc1c(N(C)C)c(=O)n(-c2ccccc2)n1C was read as CHRM5 antagonist 3.9, CHRM5 agonist 1.8, CRFBP-R2 block 10.4 and M5 PAM -0.5.
`O=C(O)c1cc(=O)c2c(OCC(O)COc3cccc4oc(C(=O)O)cc(=O)c34)cccc2o1` gave CHRM5 antagonist -5.2, CHRM5 agonist 0.5, CRFBP-R2 block -15.7 and M5 PAM 3.4.
`CC(=O)OCC(=O)[C@@]12OC(C)(C)O[C@@H]1CC1C3C[C@H](F)C4=CC(=O)C=CC4(C)[C@@]3(F)C(O)CC12C` (some centres not stated) gave CHRM5 antagonist -5.6, CHRM5 agonist 0.4, CRFBP-R2 block -17.0 and M5 PAM 0.7.
CN/C(=C/[N+](=O)[O-])NCCSCc1ccc(CN(C)C)o1 was read as CHRM5 antagonist 4.1, CHRM5 agonist 0.1, CRFBP-R2 block 10.7 and M5 PAM -1.6.

As a short view, 7 of the compounds above:
Screening COC(=O)C1=C(C)NC(C)=C(C(=O)OCCN(C)Cc2ccccc2)C1c1cccc([N+](=O)[O-])c1 (configuration not stated) returned CHRM5 antagonist 17.4, CHRM5 agonist 3.1, CRFBP-R2 block 31.0 and M5 PAM -19.2.
`NCCS(=O)(=O)O` gave CHRM5 antagonist -0.5, CHRM5 agonist -0.2, CRFBP-R2 block -2.0 and M5 PAM 0.4.
`CC1(C)S[C@@H]2[C@H](NC(=O)[C@H](N)c3ccccc3)C(=O)N2[C@H]1C(=O)OC1OC(=O)c2ccccc21` (some centres not stated) gave CHRM5 antagonist -5.4, CHRM5 agonist 0.1, CRFBP-R2 block -32.6 and M5 PAM -5.0.
Cc1c(N(C)C)c(=O)n(-c2ccccc2)n1C was read as CHRM5 antagonist 3.9, CHRM5 agonist 1.8, CRFBP-R2 block 10.4 and M5 PAM -0.5.
`O=C(O)c1cc(=O)c2c(OCC(O)COc3cccc4oc(C(=O)O)cc(=O)c34)cccc2o1` gave CHRM5 antagonist -5.2, CHRM5 agonist 0.5, CRFBP-R2 block -15.7 and M5 PAM 3.4.
`CC(=O)OCC(=O)[C@@]12OC(C)(C)O[C@@H]1CC1C3C[C@H](F)C4=CC(=O)C=CC4(C)[C@@]3(F)C(O)CC12C` (some centres not stated) gave CHRM5 antagonist -5.6, CHRM5 agonist 0.4, CRFBP-R2 block -17.0 and M5 PAM 0.7.
CN/C(=C/[N+](=O)[O-])NCCSCc1ccc(CN(C)C)o1 was read as CHRM5 antagonist 4.1, CHRM5 agonist 0.1, CRFBP-R2 block 10.7 and M5 PAM -1.6.

Additional results follow:
Screening CC(=O)OCC(=O)[C@@]1(O)CCC2C3CCC4=CC(=O)CCC4(C)C3C(=O)CC21C (some centres not stated) returned CHRM5 antagonist 0.8, CHRM5 agonist -2.6, CRFBP-R2 block -5.1 and M5 PAM 3.9.
CN=C(C[N+](=O)[O-])NCCSCc1ccc(CN(C)C)o1 was read as CHRM5 antagonist -5.5, CHRM5 agonist -0.4, CRFBP-R2 block 6.1 and M5 PAM 6.1.
`O=C(O)C[C@@H](O)C(=O)O` gave CHRM5 antagonist 0.7, CHRM5 agonist 0.4, CRFBP-R2 block -2.9 and M5 PAM -4.0.
CC[N+](C)(C)c1cccc(O)c1 was read as CHRM5 antagonist -4.0, CHRM5 agonist 8.0, CRFBP-R2 block -6.5 and M5 PAM -7.8.

Screening results: PubChem BioAssay, several laboratories

The list is partial. The share of hits here may be higher or lower than overall.
